Menin-MLL FL inh: displaces fluorescein MLL peptide from human menin | 290,000 tested, under 10 active | Fluorescence polarization, fluorescein-MLL peptide displacement from menin | FP activity change, % at 61.4 µM; inconclusive = falling polarisation curve, or a change in total fluorescence; inactive = total fluorescence flat and polarisation flat or rising; no compound was filed as active; the % refers to the polarisation; negative = inhibition;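 note: % of control where 0% means no effect; inhibitors lower the polarisation; unlabelled MLL peptide was the positive control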
TRPML1 inh: inhibitors of human TRPML1 channel; TRPML1-inducible cells, Ca2+ dye fluorescence, FDSS; stronger effect = lower value; inhibition of EC80 agonist-evoked calcium signal; hit rate 0.02% among 390,000; AID 624415; activity change, negative = inhibition, % (test concentration not listed); Q9GZU1; in the data active means activity change below about -50%; inconclusive means about -30% to -50%; inactive means above about -30%;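 note: stimulus is agonist 54-4 at its EC80 concentration; % is set by controls: 0 for no effect and ±100 for the full control effect; compound concentration not given in the record; the text of the record puts the active cut at -80%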
Target sequence (Q9GZU1 whole entry, looked up): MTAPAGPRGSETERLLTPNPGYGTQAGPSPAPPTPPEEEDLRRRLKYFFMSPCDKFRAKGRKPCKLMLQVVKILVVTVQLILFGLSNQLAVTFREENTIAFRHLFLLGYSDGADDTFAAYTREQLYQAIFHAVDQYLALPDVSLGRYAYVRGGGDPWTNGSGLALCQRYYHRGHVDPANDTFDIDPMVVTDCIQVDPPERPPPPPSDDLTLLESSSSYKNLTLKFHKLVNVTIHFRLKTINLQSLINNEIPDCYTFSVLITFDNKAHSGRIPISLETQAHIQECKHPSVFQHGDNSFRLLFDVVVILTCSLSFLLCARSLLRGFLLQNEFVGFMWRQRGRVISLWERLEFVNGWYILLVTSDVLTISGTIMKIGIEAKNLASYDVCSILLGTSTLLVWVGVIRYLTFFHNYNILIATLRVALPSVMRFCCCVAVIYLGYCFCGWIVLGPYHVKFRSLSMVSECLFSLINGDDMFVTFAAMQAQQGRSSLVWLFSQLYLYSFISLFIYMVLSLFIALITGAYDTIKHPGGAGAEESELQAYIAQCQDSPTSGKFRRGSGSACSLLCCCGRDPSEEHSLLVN
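Calcium fluorescence in TRPML1-DL cells induced overnight with Tet: a 110 s read after compound pin addition, then a 110 s antagonist read after challenge with 54-4 at 4 uM final (EC80).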
gsp antagonist: antagonizes gsp, the McCune-Albright syndrome mutation. AID 624288. gsp-mutant cells, cAMP HTRF, 30 min; control for the full effect not named in the record. Potency, µM (highest dose often 76.9 µM), for inactives: at the highest dose activity change, negative = inhibition, usual class: inhibitors. hit rate 0.4% among 340,000; active = falling curve of any shape with a large fitted effect; inconclusive = falling curve, mostly with a smaller effect; inactive = flat or rising curve; cell line not stated here;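 note: intracellular cAMP measured with PDE inhibitor Ro 20-1724 present during compound exposure; potency is the fitted concentration of half-maximal effect; % is set by controls: 0 for no effect and ±100 for the full control effect; nearly all actives have a fitted effect of over 65% in size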
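Cells in G418 medium, seeded 16-24 h, 37C; buffer exchange to DPBS + 1 mM CaCl2, 0.5 mM MgCl2, 0.05% BSA; cpds in DMSO + […] (300 uM stock), 30 min 37C; HTRF cAMP detection.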
gsp agonist: agonists of gsp mutant (McCune-Albright syndrome) | gsp mutant cells, cAMP HTRF, 30 min; control for the full effect not named in the record | Potency, µM (series often up to 76.9 µM), for the others: top-dose activation (cAMP increase), most hits filed as activators | hit rate 0.13% among 340,000; active = well fitted activation curve with a large enough effect; inconclusive = small, poorly fitted or top-dose-only effect, or another doubt; inactive = no such curve, though single readings can be large or run the other way; cell line not stated here;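 note: phosphodiesterase inhibitor Ro 20-1724 added with compounds to block cAMP breakdown; potency is the fitted concentration of half-maximal effect; nearly all actives have a fitted effect of over 60% in size; about a fifth of the inactives were tested at one dose only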
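Cells in DMEM/10% FBS with G418 were pretreated with compounds in DMSO plus […] (300 uM stock) for 30 min at 37C. cAMP was measured by HTRF (cAMP-d2 plus anti-cAMP antibody-K) after 30 min at room temperature.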
TRPML1 agonist: activates the human TRPML1 channel; activation, % (no concentration beside the values); Q9GZU1; AID 624414; TRPML1-expressing cells, Ca2+ dye fluorescence, FDSS; host cell line not named in the record; reference of the full effect not given here; hit rate 0.12% among 410,000; in the data active = activation above about 50%; inconclusive = about 30% to 50%; inactive = below about 30%; note: 0% is about no effect; the text of the record puts the active cut at 80%
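Tet-induced TRPML1-DL cells, 1,500 per well, cultured overnight, were loaded with a no-wash Ca2+ dye for 45–90 min. Calcium fluorescence was recorded on the FDSS for 110 s after compound addition, before the EC80 agonist (4 uM 54-4) was added.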
ClpP mod: qHTS Assay for Activators of ClpP; hit rate 1.9% among 340,000; purified B. subtilis ClpP, FRET peptide cleavage, 20 min; Potency, µM (doses to about 57.5 µM), for inactives: top-dose activity change, negative = active; AID 651965, 2013; ATP-dependent Clp protease proteolytic subunit (Bacillus subtilis (strain 168)), P80244; active = well fitted falling curve with a large enough effect; inconclusive = small, poorly fitted or top-dose-only effect; inactive = no such curve, though single readings can be large or run the other way; note: potency is the fitted concentration of half-maximal effect; the source files actives as falling curves though it sought activators and does not explain the sign; nearly all actives have a fitted effect of over 65% in size; many hits overshoot -100%
Target sequence (P80244 whole entry, looked up): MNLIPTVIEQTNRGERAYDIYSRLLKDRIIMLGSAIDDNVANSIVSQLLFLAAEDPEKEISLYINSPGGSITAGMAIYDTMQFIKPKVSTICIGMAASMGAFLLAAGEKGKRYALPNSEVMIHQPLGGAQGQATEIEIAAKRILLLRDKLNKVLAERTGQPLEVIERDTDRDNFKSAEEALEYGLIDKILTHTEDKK
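ClpP 10 microg/mL final, pH 8 Tris/KCl buffer with BSA, glycerol, Tween-20; compound pinned in; FRET-FV substrate; RT 20 min; Ex320/Em430; ΔFRET vs ADEP 5.8 microM, DMSO, no enzyme.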
* = called active by the depositor; ? = inconclusive; / = no result given; [ ] = dose if it differs, or a comment. The list is partial, so the mix of outcomes need not match the whole.

SMILES | Menin-MLL FL inh | TRPML1 inh | gsp antagonist | gsp agonist | TRPML1 agonist | ClpP mod
ClC1=C(Cl)C2(Cl)C3C(Cl)C=CC3C1(Cl)C2(Cl)Cl (configuration not stated) | -0.5 | 2 | -13% | / | -0.8 | 1.6%
C[C@H]1CC[C@H]2NCCN[C@H]2C1 | -0.7 | -5 | 10% | 13%[15.4 µM] | 0.1 | /
NCC(CC(=O)O)C1CCCCC1 (configuration not stated) | -0.6 | -9 | 9% | -33% | 1.5 | -1.1%
COc1ccc2c(c1)-c1nc(NC(=O)c3ccc(Cl)cc3)sc1CC2 | / | 17 | / | / | 2.0 | ?
CN1CCN(c2ccc([N+](=O)[O-])c(N3CCCCC3)c2)CC1 | 0.5 | 0 | -1% | -47%[inhibitor] | -0.2 | /
c1cncc(CNC2CCCCC2)c1 | 1.7 | 7 | 12% | -42%[inhibitor] | -0.6 | /
COc1ccc(-n2c(O)c(C(C)=Nc3ccc4c(c3)CCC4)c(=O)[nH]c2=O)cc1 | 1.5 | 5 | 15% | -31%[inhibitor] | 4.5 | 0.4%
CCN(CC)C(=O)c1ccc(NC(=O)c2cn(-c3ccccc3)nc2-c2ccc(OC)cc2)cc1 | / | 10 | ? | -5% | 1.3 | -20%
CCOC(=O)C1=CC(=C2C(=O)N(CC)C(=S)N(CC)C2=O)c2ccccc2O1 | ? | 30 | -12% | 19% | 2.0 | /
CCc1cccc(NC(=O)c2ccc(NC(=O)N3CCSc4ncccc43)cc2)c1 | / | 13 | / | / | 1.4 | ?
Clc1ccc2c(c1)C(OC1CN3CCC1CC3)c1ccccc1CS2 (configuration not stated) | -1.2 | 22 | 16% | -59%[inhibitor] | 3.7 | -1.0%
CCCCCn1c(=O)c(C(=O)Nc2ccccc2S(N)(=O)=O)c(O)c2ccccc21 | 2.2 | -11 | -6% | -3% | 2.2 | /
NNC(=O)c1ccc(Cl)cc1 | 2.7 | 7 | 13% | 4% | 0.3 | 1.4%
Cc1ccc(N2C(=O)NC(=O)C(CCc3ccccn3)(Cc3ccc(F)cc3)C2=O)cc1 (configuration not stated) | 2.5 | 6 | / | 1%[15.4 µM] | 4.0 | /
COc1ccc(-c2nc(CS(=O)CC(=O)N3CCC4(CC3)OCCO4)c(C)o2)cc1 (configuration not stated) | 0.8 | 2 | -7% | 8% | -0.3 | 32µM*
CCC(=Nc1ccc(OC)cc1OC)c1c(O)[nH]c(=O)[nH]c1=O | -1.7 | 22 | 8% | 10% | 0.5 | -0.8%
Clc1ccc(N2CCNCC2)nn1 | -2.2 | 5 | 17% | -5%[15.4 µM] | -0.9 | ?
CC(=NCCCn1ccnc1)c1c(O)n(-c2ccccc2)c(=O)[nH]c1=O | 2.5 | 1 | -2% | 2%[15.4 µM] | -0.3 | 0.2%
O=C(Cc1ccccc1)N1CCN(Cc2ccccc2Cl)CC1 | -0.7 | 5 | 2% | 6% | -0.3 | 0.3%
C=CCN=C(SCC(=O)c1ccc(Cl)cc1)c1c(O)n(C)c(=O)n(C)c1=O | 2.2 | 8 | -2% | 15% | 1.0 | -1.4%
c1ccc(C2(N3CCCCC3)CCCCC2)cc1 | / | 3 | -2% | / | -0.3 | 1.1%
Cc1cc(C)cc(N2C(=O)NC(=O)/C(=C/c3cccn3-c3ccc(Cl)cc3)C2=O)c1 | 1.0 | 9 | 19% | 19% | -0.4 | /
CC(=O)c1ccc2c(c1)OCO2 | -0.7 | / | 1% | / | / | -9.8%
COC(=O)C1=C(c2cccc(OC)c2OC)C[C@@H]2CC[C@H]1N2C(=O)NCCS(C)=O (some centres not stated) | / | 32 | 13% | -27% | -0.6 | 1.0%
CN1CCN(Cc2nc3ccccc3c(=O)[nH]2)CC1 | -1.5 | -1 | 9% | -2% | 0.4 | -0.4%
CC(=O)N1N=C2C3CCN(CC3)C2C1c1cccc2ccccc12 (configuration not stated) | -3.5 | 0 | 3% | -72%[inhibitor] | 0.0 | -2.8%
c1ccc2occc2c1 | / | -5 | 12% | -41%[inhibitor] | 0.3 | -4.2%
Fc1ccccc1CCNCc1cccc2ccccc12 | 5.8 | 15 | -3% | 18% | 2.9 | -2.7%
C[C@H]1CCC/C=C/[C@@H]2C[C@H](O)C[C@H]2[C@@H](O)/C=C/C(=O)O1 | / | -13 | -8% | 5% | 0.8 | ?
Cc1ccc(-n2c(/C=C/c3ccccn3)nc3ccccc3c2=O)cc1 | -0.9 | -8 | 12% | 3% | -0.7 | 1.1%
O=C(CCl)Nc1nccs1 | 4.2 | 1 | 7% | 6% | 1.8 | -0.8%
NC(Cc1ccccc1)Cc1ccccc1 | -1.7 | 5 | 2% | 4%[15.4 µM] | -0.4 | /
CC(c1ccccc1)n1cncc1C(=O)O (configuration not stated) | 0.6 | 24 | 4% | 8% | 1.6 | -0.3%
N=C1c2ccccc2CN1NC(=O)c1ccc(Br)cc1 | 3.1 | -2 | 5% | 9% | 0.2 | -3.1%
NS(=O)(=O)c1nc[nH]c1[N+](=O)[O-] | / | 0 | 9% | -6% | 0.8 | -1.3%
O=C(OCC(=O)c1ccc([N+](=O)[O-])cc1)/C(=C\c1ccc(Cl)cc1)NC(=O)c1ccccc1 | 5.3 | 11 | -15% | -18% | 0.2 | -2.5%
O=P(C(=Nc1ccc(Cl)cc1)N1CCOCC1)(N1CCOCC1)N1CCOCC1 | 0.3 | 9 | 8% | 10% | 1.7 | 0.3%
COc1ccc2c(c1)CC1(CN2C)C(=O)NC(=O)N(CCc2ccccc2)C1=O (configuration not stated) | ? | -2 | -31% | -36%[inhibitor] | -0.6 | -0.8%
CC(C)C(=O)Nc1ccc(S(=O)(=O)N2CC3CC(C2)c2cccc(=O)n2C3)cc1 (configuration not stated) | -0.1 | 1 | ? | ? | 0.2 | -2.8%
COC(=O)C1=C(c2ccc(-c3ccccc3)c(F)c2)C[C@@H]2CC[C@H]1N2C(=O)N1CCCCC1 | / | 3 | ? | / | 1.3 | -10%
NC(=O)CSP(=O)(c1ccccc1)c1ccccc1 | 0.5 | -11 | 2% | -7% | 0.2 | 0.3%
COc1cc2c(cc1OC)-c1c(OC)c(OC)cc3c1C(C2)N(C)CC3 (configuration not stated) | -1.1 | / | -5% | / | / | 4.3%
CC1CCCCN1C(=O)c1ccc(N2CC3CC(C2)c2cccc(=O)n2C3)c([N+](=O)[O-])c1 (configuration not stated) | -1.6 | -20 | -6% | 13% | 0.8 | ?
COC(=O)C1=C(c2ccc(C(C)=O)cc2)C[C@@H]2CC[C@H]1N2C(=O)NCc1ccc2c(c1)OCO2 | / | -13 | -11% | 7% | -0.5 | 1.1%
O=S(=O)(c1ccccc1)N1Cc2ccccc2-n2nncc2C1 | / | 27 | / | ? | -0.3 | -1.7%
CC12CC[C@H]3[C@@H](CCC4(O)C[C@H](O)CCC34/C=N/NC(=O)c3ccccc3O)C1(O)CCC2C1=CC(=O)OC1 (some centres not stated) | -1.3 | -10 | 9% | 20% | -0.8 | /
C=CCn1c(O)c(/C=N/NC(=O)c2ccncc2)c(=O)[nH]c1=O | 14 | 6 | 6% | 2%[15.4 µM] | -0.2 | -2.3%
CCOP(=O)(OCC)c1nc(-c2cccc3ccccc23)oc1NCc1ccccc1 | 4.6 | 0 | 5% | -4% | -0.7 | ?
COP(=O)(OC)C(NC(=O)C(C)(C)C)=C(Cl)Cl | -1.5 | 10 | -4% | -5% | -0.6 | -1.0%
O=[N+]([O-])c1cc(-n2cnnn2)c(O)c([N+](=O)[O-])c1 | -0.4 | / | 6% | 25% | / | 0.4%
Cc1nn(Cc2c(Cl)cccc2Cl)c(Cl)c1C(=O)O | -7.3 | 5 | 2% | -42%[inhibitor] | 1.0 | 2.0%
CCCCCCN1CCN(c2ccc(Cl)cc2)CC1 | 1.5 | 14 | 15% | -9% | -0.6 | /
CN1CCN(c2ccc(S(=O)(=O)C(F)(F)F)cc2[N+](=O)[O-])CC1 | 2.8 | 32 | 0% | 3%[15.4 µM] | 1.2 | 4.0%
Cc1ccc(-n2c(/C=C\c3ccc(F)cc3)nc3ccccc3c2=O)cc1Cl | / | -1 | / | / | 0.2 | -1.1%
Cc1cccc(NC(=S)NC2CC3CCC(C2)N3Cc2ccco2)c1 (configuration not stated) | -0.7 | 4 | 4% | -75%[inhibitor] | -0.1 | 0.1%
O=C(c1ccccc1F)c1cn(Cc2ccccc2)c2ccccc12 | 2.5 | -3 | -21% | ? | 1.0 | -3.4%
O=C(CN1CCCC1=O)NCCc1ccccc1 | -0.1 | 17 | 3% | -2% | 0.1 | /
Cc1ccc2c(c1)=C/C(=C\c1c(O)[nH]c(=O)[nH]c1=O)C(=O)N=2 | 8.0 | -10 | -9% | -31%[inhibitor] | -0.5 | 32%
COc1ccc(N2C(=O)/C(=C/c3ccc(N(C)C)o3)C(=O)NC2=S)cc1 | ? | -9 | -10% | ? | 14 | 1.0%
CC(C)OCC(O)CN1CC2C[C@@H](C1)Cn1c2cccc1=O (some centres not stated) | -6.1 | -3 | 4% | ? | -0.4 | -0.8%
(cont.)
SMILES | Menin-MLL FL inh | TRPML1 inh | gsp antagonist | gsp agonist | TRPML1 agonist | ClpP mod
CC(=O)C1CCC2C3CCC4CC(O)CCC4(C)C3CCC12C#N (configuration not stated) | / | -9 | / | -25% | 0.8 | -3.3%
c1ccc(NC2=NCCS2)cc1 | 1.2 | / | 12% | ? | / | -0.7%
CCOc1ccc(N=Cc2c(O)n(CCc3ccc(OC)c(OC)c3)c(=O)[nH]c2=O)cc1 | 15 | -2 | 9% | -1%[15.4 µM] | -0.6 | 0.1%
CCCCC1C(=O)NC(=S)N(C)C1=O (configuration not stated) | / | -2 | -5% | 8% | -0.3 | 13%
C=CCN1C(=O)NC(=O)/C(=C/c2ccc(OCC(=O)Nc3ccc(C)cc3)cc2)C1=O | -8.1 | 25 | -1% | 18% | 0.2 | -0.7%
CCCCCn1c(N)c(C(=O)NCc2cccs2)c2nc3ccccc3nc21 | 1.4 | -2 | 9% | 17% | -0.7 | 28µM*
Cc1nn(C2CCOC(C)(C)C2)c2c1C(c1ccc(OC(C)C)cc1)SCC(=O)N2 (configuration not stated) | 4.9 | -1 | -5% | 5% | -0.3 | 1.2%

From PubChem
